# Insulin prom inh: TRM-6 insulin promoter activity inhibition; TRM-6 cells (human fetal islet line), insulin promoter-eGFP reporter, imaging; reporter expression induced with tamoxifen; inhibition, % at 2 µM; hit rate 0.9% among 130,000; AID 1273;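 active = inhibition above the mean plus 3 SD, with well images judged a real hit on visual review, cut at about 60% in these data, passing the limit was not always enough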
# HSV augment: increases HSV replication in cells | HSV replication augmentation in cells, fold increase | maximum fold increase | hit rate 0.005% among 220,000;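 active = peak rise of 1.5-fold or more in the series; tested in PC3 cells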;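 also: first round at 10 µM; read as green reporter fluorescence; hits show the peak of a series up to 25 µM; 1 = signal of infected wells without compound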
# GALR2 ag: GALR2 (human) receptor agonism; O43603; GALR2-expressing cells, agonist activation read-out; activation, %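 (tested at 5 µM)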; hit rate 0.48% among 140,000;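 active = above mean plus 3 SD of all compounds, about 5% in these data, not always enough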;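 also: 0% = vehicle buffer wells and 100% = reference agonist at full effect; tested in CHO reporter cells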
# RGS16-Gao HTS: RGS16-Galphao interaction regulator (human); O15492+P09471; bead-based flow cytometry RGS16-Galphao binding, fluorescence; actives lie on both sides; binding response (% of control), % at 10 µM; hit rate 0.38% among 220,000; AID 1441;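 active = below 25% or above 175%, edge rows of some plates excepted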;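 also: Galphao activated by GDP with aluminum fluoride before binding; 100% = wells without compound and 0% = beads without RGS; some results beyond the cut were filed as inactive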
# Target sequence (O15492 whole entry, looked up): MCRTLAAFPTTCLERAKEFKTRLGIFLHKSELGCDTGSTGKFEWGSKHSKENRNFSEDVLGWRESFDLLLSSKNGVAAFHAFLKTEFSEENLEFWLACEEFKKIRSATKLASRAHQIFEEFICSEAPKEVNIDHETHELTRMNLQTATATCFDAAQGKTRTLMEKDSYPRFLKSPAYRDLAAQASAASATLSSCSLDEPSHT
# Target sequence (P09471 whole entry, looked up): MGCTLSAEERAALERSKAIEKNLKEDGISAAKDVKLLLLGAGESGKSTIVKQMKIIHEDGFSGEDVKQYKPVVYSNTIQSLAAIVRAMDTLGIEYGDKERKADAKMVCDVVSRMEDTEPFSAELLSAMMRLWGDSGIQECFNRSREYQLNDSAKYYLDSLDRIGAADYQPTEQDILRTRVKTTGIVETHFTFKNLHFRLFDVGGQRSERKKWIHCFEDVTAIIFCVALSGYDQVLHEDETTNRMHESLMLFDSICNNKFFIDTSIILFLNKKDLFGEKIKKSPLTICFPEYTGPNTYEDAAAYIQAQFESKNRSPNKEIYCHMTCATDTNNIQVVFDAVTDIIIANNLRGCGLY
# PKD1 inh: blocks activity of human protein kinase D1; PKD1 kinase fluorescence polarization assay; inhibition, %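 (about 10 µM by stock and volumes)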; hit rate 0.056% among 200,000; AID 797;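 active = inhibition of 50% or more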;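 also: controls were vehicle for no effect and a reference inhibitor for full effect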
# Insulin prom inh cell count: second read-out of Insulin prom inh, no call of its own (marks repeat the call); normalized cell count, %; measured here: cell count, toxicity; reference of the scale not given here;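 cells exposed to compound for 48 h; stained nuclei by imaging scaled within each plate; lower means fewer cells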
# HSV augment primary fold: further read-out of HSV augment, marked with its call; fold increase; compound at 10 µM; measured here: primary screen fold increase 10 uM; tested in PC3 cells;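 GFP signal in the first replicate; 1 = infected wells without compound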
# An asterisk follows results filed as active; i = inactive; . = no result given. No enrichment for hits (roughly 1.2% active in at least one column).
# A first look:
SMILES,Insulin prom inh,Insulin prom inh cell count,HSV augment,HSV augment primary fold,GALR2 ag,RGS16-Gao HTS,PKD1 inh
O=c1cc(CSc2nnc(COc3ccccc3)n2-c2ccccc2)c2ccccc2[nH]1,-42.9,93.4,i,0.83,0.0,27.6,-3.0
Cc1sc2ncn(CC(=O)NCc3ccccc3)c(=O)c2c1C,.,.,i,0.92,.,101.9,.
CCN(CC)CCNC(=O)CCn1c(=S)[nH]c2cc3c(cc2c1=O)OCO3,20.0,75.7,i,0.88,-3.6,90.5,-3.5
COc1ccc(-n2c(SC)nc(O)cc2=O)cc1,.,.,i,1.02,-2.8,104.0,-7.0
COc1ccc(C(=O)NCCN2C(=O)S/C(=C\c3cccnc3)C2=O)c(OC)c1OC,20.0,9.8,i,0.97,-0.8,101.2,-9.5
O=c1c2[nH]c3ccc(F)cc3c2ncn1CCN1CCN(Cc2ccccc2)CC1,.,.,i,0.75,-1.5,99.7,3.1
COCCN(CCOC)S(=O)(=O)c1ccc(C(=O)Nc2sc3c(c2C(N)=O)CCCCC3)cc1,.,.,i,1.12,0.4,98.9,-2.2
O=C(/C=C/c1ccccc1Cl)Nc1ccc(-c2nnc3n2CCCCC3)cc1,19.4,105.4,i,0.93,1.3,98.8,-1.2
Cn1c(CCCOc2ccc(Cl)cc2Cl)n[nH]c1=S,.,.,i,0.96,.,100.6,2.5
CCOc1cc(C)nc(N2CCN(C3CCCCC3)CC2)n1,-39.4,132.2,i,0.99,-0.7,142.2,3.4
COc1cccc(OC)c1C(=O)N1CCN(Cc2ccccc2C)CC1,7.1,139.7,i,1.05,-0.9,97.7,5.2
Cc1cc(NC(=O)/C=C/c2ccc(F)cc2)n(-c2nc3ccccc3[nH]2)n1,9.7,66.2,i,1,-3.6,101.3,4.2
O=C(NNC(=S)NCc1ccc(Cl)cc1)c1ccc(Br)o1,.,.,i,0.89,.,102.0,-5.2
O=C(O)CC1S/C(=N\N=C/c2ccccc2)N(c2ccc(O)cc2)C1=O (stereo not given),-116.1,125.3,i,0.91,-1.3,101.3,-9.6
CCC(C)[C@H](NC(=O)NCCCOC(C)C)C(=O)OC (stereo not given in full),.,.,i,1.08,.,105.4,.
c1ccc(CSC2=NCCS2)cc1,-12.5,103.4,i,0.93,.,106.2,5.3
O=C(CSc1nnc(CNC(=O)c2cccs2)o1)c1ccccc1,0.0,105.8,i,0.95,-1.4,99.5,4.2
COc1ccc(-n2c(O)c(C=NC3CC3)c(=O)[nH]c2=O)cc1,.,.,i,1.06,-2.6,92.2,9.9
CC(=O)Oc1ccccc1C1OC(=O)c2ccccc2N1C(C)=O (stereo not given),-34.3,133.9,i,0.9,-3.0,104.9,-3.9
O=C(Nc1ccc(F)cc1F)NC1CCN(Cc2c(F)cccc2Cl)CC1,.,.,i,0.9,.,106.0,.

# All compounds of this part, from the start:
SMILES,Insulin prom inh,Insulin prom inh cell count,HSV augment,HSV augment primary fold,GALR2 ag,RGS16-Gao HTS,PKD1 inh
O=c1cc(CSc2nnc(COc3ccccc3)n2-c2ccccc2)c2ccccc2[nH]1,-42.9,93.4,i,0.83,0.0,27.6,-3.0
Cc1sc2ncn(CC(=O)NCc3ccccc3)c(=O)c2c1C,.,.,i,0.92,.,101.9,.
CCN(CC)CCNC(=O)CCn1c(=S)[nH]c2cc3c(cc2c1=O)OCO3,20.0,75.7,i,0.88,-3.6,90.5,-3.5
COc1ccc(-n2c(SC)nc(O)cc2=O)cc1,.,.,i,1.02,-2.8,104.0,-7.0
COc1ccc(C(=O)NCCN2C(=O)S/C(=C\c3cccnc3)C2=O)c(OC)c1OC,20.0,9.8,i,0.97,-0.8,101.2,-9.5
O=c1c2[nH]c3ccc(F)cc3c2ncn1CCN1CCN(Cc2ccccc2)CC1,.,.,i,0.75,-1.5,99.7,3.1
COCCN(CCOC)S(=O)(=O)c1ccc(C(=O)Nc2sc3c(c2C(N)=O)CCCCC3)cc1,.,.,i,1.12,0.4,98.9,-2.2
O=C(/C=C/c1ccccc1Cl)Nc1ccc(-c2nnc3n2CCCCC3)cc1,19.4,105.4,i,0.93,1.3,98.8,-1.2
Cn1c(CCCOc2ccc(Cl)cc2Cl)n[nH]c1=S,.,.,i,0.96,.,100.6,2.5
CCOc1cc(C)nc(N2CCN(C3CCCCC3)CC2)n1,-39.4,132.2,i,0.99,-0.7,142.2,3.4
COc1cccc(OC)c1C(=O)N1CCN(Cc2ccccc2C)CC1,7.1,139.7,i,1.05,-0.9,97.7,5.2
Cc1cc(NC(=O)/C=C/c2ccc(F)cc2)n(-c2nc3ccccc3[nH]2)n1,9.7,66.2,i,1,-3.6,101.3,4.2
O=C(NNC(=S)NCc1ccc(Cl)cc1)c1ccc(Br)o1,.,.,i,0.89,.,102.0,-5.2
O=C(O)CC1S/C(=N\N=C/c2ccccc2)N(c2ccc(O)cc2)C1=O (stereo not given),-116.1,125.3,i,0.91,-1.3,101.3,-9.6
CCC(C)[C@H](NC(=O)NCCCOC(C)C)C(=O)OC (stereo not given in full),.,.,i,1.08,.,105.4,.
c1ccc(CSC2=NCCS2)cc1,-12.5,103.4,i,0.93,.,106.2,5.3
O=C(CSc1nnc(CNC(=O)c2cccs2)o1)c1ccccc1,0.0,105.8,i,0.95,-1.4,99.5,4.2
COc1ccc(-n2c(O)c(C=NC3CC3)c(=O)[nH]c2=O)cc1,.,.,i,1.06,-2.6,92.2,9.9
CC(=O)Oc1ccccc1C1OC(=O)c2ccccc2N1C(C)=O (stereo not given),-34.3,133.9,i,0.9,-3.0,104.9,-3.9
O=C(Nc1ccc(F)cc1F)NC1CCN(Cc2c(F)cccc2Cl)CC1,.,.,i,0.9,.,106.0,.
COc1ccc(CCCc2nnc(SCC(=O)Nc3cc(C)c(C)cc3Br)o2)cc1,-33.3,90.7,i,0.76,-1.5,96.5,-9.2
Cc1c([N+](=O)[O-])cc(C(=O)N2CCOCC2)cc1[N+](=O)[O-],7.4,84.9,i,0.97,-1.1,81.0,-9.3
COc1ccc(/C=C/C(=O)NC(C)(C)C)cc1S(=O)(=O)N1CCOCC1,.,.,i,1.11,-0.2,104.4,6.8
CCN(CC)CCNCc1cc(Cl)ccc1OCc1ccccc1F,.,.,i,0.9,.,98.0,1.5
CC(OC(=O)CNS(=O)(=O)/C=C/c1ccccc1)C(=O)Nc1ccc(S(=O)(=O)N2CCCC2)cc1 (stereo not given),15.4,93.4,.,.,-1.9,122.7,-4.8
COc1cc(C(=O)NC(=S)NNC(=O)[C@H]2C[C@@H]2c2ccccc2)cc(OC)c1OC,.,.,i,1.11,.,107.1,.
S=C(NCc1ccncc1)Nc1ccc(Cl)cc1,13.8,142.0,i,1.17,0.6,100.6,1.9
NC(=O)NC(=O)COC(=O)c1ccc2c(c1)C(=O)N(Cc1ccccc1)C2=O,.,.,i,1.31,.,110.8,.
COc1ccc2c(c1)C1=NN(/C(C)=C\C(C)=O)C(c3ccccc3)C1CC2 (stereo not given),31.2,81.2,i,1.04,-1.1,98.6,-14.1
Cc1nnc(SCC(=O)Nc2ncc(S(=O)(=O)c3ccc([N+](=O)[O-])cc3)s2)s1,6.2,137.5,i,0.96,-3.3,107.7,0.1
Cc1cc2c(=O)n(Cc3ccco3)c(SCC(=O)NCc3ccco3)nc2s1,-38.7,158.4,i,0.94,-1.0,99.4,4.1
CC1Cc2ccccc2N1C(=O)C1CCCN(S(=O)(=O)c2cccc3cccnc23)C1 (stereo not given),.,.,i,0.91,-1.2,113.5,11.7
N#CCC(=O)N/N=C/c1ccc(OS(=O)(=O)c2ccccc2)cc1,-153.1,120.8,i,0.89,-4.3,100.8,-2.2
COc1cc2c(cc1OC)C(c1ccccc1O)N(C1CC(=O)N(c3ccccc3)C1=O)CC2 (stereo not given),-30.0,106.0,.,.,-2.6,58.9,-0.3
COc1cccc(C2CC(c3cccs3)=NN2C(=O)CSc2nc3ccccc3o2)c1OC (stereo not given),.,.,i,1.04,-0.9,102.4,-3.5
O=C(CSc1ccccc1)Nc1nc2ccccc2[nH]1,.,.,i,0.7,0.4,105.6,1.3
COc1ccc(-c2cnnn2-c2ccc(NC(=O)/C=C/c3ccc(OC)c(OC)c3)cc2)cc1,.,.,i,1.11,0.9,93.8,3.4
CC(C(=O)NCCN1C(=O)S/C(=C\c2cccs2)C1=O)N1C(=O)c2ccccc2C1=O (stereo not given),-2.0,41.5,i,0.95,-0.8,81.3,-5.1
Clc1ccc(CNCc2cccs2)cc1Cl,-21.4,129.2,i,1.02,0.3,105.3,0.4
O=C(NC1CCCC1)C1(c2ccccc2)CCN(S(=O)(=O)c2ccccc2)CC1,-7.1,122.1,i,0.99,-0.7,101.2,2.5

# Some values from the entries so far:
# Result of COc1ccc(CCCc2nnc(SCC(=O)Nc3cc(C)c(C)cc3Br)o2)cc1 in PKD1 inh: -9.2
# Result of CC1Cc2ccccc2N1C(=O)C1CCCN(S(=O)(=O)c2cccc3cccnc23)C1 (stereo not given) in HSV augment primary fold: 0.91
